Source: PubChem
UCH37 DUB inh: inhibitors of human UCH37 deubiquitinase, primary screen, biochemical, Ub-AMC cleavage, fluorescence; actives 0.33% (n = 330,000); Ubiquitin carboxyl-terminal hydrolase isozyme L5 (Homo sapiens), Q9Y5K5; purified proteasome/UCH37; inhibition, % (concentration not given with the values); AID 588478, 2011;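 active = mean of two replicates above 20%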;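 also: 0% = compound-free wells with enzyme and 100% = wells lacking proteasome; stock transfer was 100 nL into about 20 µL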
Target sequence (Q9Y5K5 whole entry, looked up): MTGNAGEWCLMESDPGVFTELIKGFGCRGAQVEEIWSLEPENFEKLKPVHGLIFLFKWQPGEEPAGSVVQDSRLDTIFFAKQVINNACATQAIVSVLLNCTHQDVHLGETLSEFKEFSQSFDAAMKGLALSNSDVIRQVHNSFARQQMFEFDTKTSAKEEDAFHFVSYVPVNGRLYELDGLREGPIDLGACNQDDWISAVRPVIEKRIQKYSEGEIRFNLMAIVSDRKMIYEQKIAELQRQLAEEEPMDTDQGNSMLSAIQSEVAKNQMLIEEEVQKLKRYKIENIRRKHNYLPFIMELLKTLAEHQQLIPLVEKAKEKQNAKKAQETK
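Schedule: 30 min plus 25 min, room temperature / Material: human UCH37 within purified proteasomes / Technique: AMC fluorescence intensity at 355/460 nm / Buffer or medium: pH 7.4 Tris-HCl (50 mM) with ovalbumin, ATP-MgCl2, DTT / Controls: wells without proteasome as full block, compound-free enzyme plus substrate as uninhibited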
Ecoli growth: E. coli growth inhibition, primary screen, OD600. Escherichia coli growth, 23 h; hits give low values. actives 0.21% (n = 330,000). OD600 absorbance (test concentration not listed);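 active = OD600 absorbance below the run mean of sample wells minus 3.6 SD, in any replicate, cut at about 0.56 in these data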;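 also: stock transfer was 300 nL into about 60 µL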
RanGTP-Imp inh: inhibitors of RanGTP-importin-beta interaction, primary screen, biochemical, FRET, CFP-Ran, YFP-importin-beta, homogeneous | actives 1.1% (n = 300,000) | inhibition, % (no concentration beside the values) | Ran GTPase (GTP-bound) - importin-beta complex | cell-free CFP-Ran/YFP-importin-beta FRET ratio;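 active = most replicates above 15%; inconclusive = exactly half above 15%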;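 also: 0% = DMSO wells and 100% = Ran loaded with GDP instead of GTP; wells of about 40 µL received 100 nL stock; the first replicate is given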
AF4-AF9 inh: inhibitors of AF4 peptide binding to AF9, primary screen, biochemical, AlphaScreen, biotin-AF4 peptide, FLAG-AF9, single point. inhibition, % at 10 µM. actives 0.47% (n = 350,000). AID 651704, 2012;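 active = every replicate reaching a set inhibition limit, whatever the replicate mean, cut at about 25% in these data; inconclusive = mean inhibition reaches that limit but some replicates miss it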;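 also: 0% = plate neutral control median and 100% = total signal loss; the record names both 10 and 1 µM as test concentration; the first replicate is given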
HNF4A DNA FP: change in binding of human HNF4A to DNA, primary screen, biochemical, fluorescence polarization, FITC-DNA; actives 0.3% (n = 360,000); AID 1224865, 2016; activity change, % at 10 µM; 1 h; in the data active = activity change above about 30%, passing the limit was not always enough;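 also: controls were the assay level and a saturating level of protein; the project sought stronger binding though the title names inhibitors; some compounds called inactive have numbers as strong as hits; positive values seem to mean higher polarization but the record does not say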
Target sequence (P41235 whole entry, looked up): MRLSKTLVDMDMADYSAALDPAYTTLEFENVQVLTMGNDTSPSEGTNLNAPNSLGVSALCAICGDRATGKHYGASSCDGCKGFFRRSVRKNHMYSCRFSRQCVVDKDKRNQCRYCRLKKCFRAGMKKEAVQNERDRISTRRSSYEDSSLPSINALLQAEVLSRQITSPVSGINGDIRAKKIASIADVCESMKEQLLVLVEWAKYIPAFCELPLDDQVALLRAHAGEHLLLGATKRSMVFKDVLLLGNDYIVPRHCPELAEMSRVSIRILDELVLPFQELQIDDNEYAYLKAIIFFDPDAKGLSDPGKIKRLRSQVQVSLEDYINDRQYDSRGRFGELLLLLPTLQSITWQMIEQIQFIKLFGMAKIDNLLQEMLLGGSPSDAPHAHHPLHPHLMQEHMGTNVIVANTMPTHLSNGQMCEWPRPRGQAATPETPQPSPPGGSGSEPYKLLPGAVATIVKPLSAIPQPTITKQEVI
FGF22 binding: binders of human FGF22 protein, primary screen, FGF22 synaptogenesis inhibitor project, biophysical, thermal shift, single point. AID 651658, 2012. calls only at 9.99 µM. recombinant FGF22 thermal shift, SYPRO orange fluorescence; percent of sucrose octasulfate shift, DMSO zero. Fibroblast growth factor 22 (Homo sapiens), Q9HCT0. actives 1.5% (n = 340,000);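 active = melting point raised past a set limit in the mean and every replicate; inconclusive = no clear call; three in four hits are not shown here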
Target sequence (Q9HCT0 whole entry, looked up): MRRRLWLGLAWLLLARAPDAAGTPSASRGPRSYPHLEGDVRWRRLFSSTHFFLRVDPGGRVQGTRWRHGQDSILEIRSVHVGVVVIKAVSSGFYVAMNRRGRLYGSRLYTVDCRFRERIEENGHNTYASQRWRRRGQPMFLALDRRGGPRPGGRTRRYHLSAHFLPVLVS
Vif A3G: inhibitors of Vif binding to APOBEC3G peptide, primary screen, biochemical, TR-FRET, GST-Vif 1-94, biotin-A3G peptide, dose response retest (AID 1117319); inhibition, %, or IC50 in µM where a hit was titrated; Virion infectivity factor (Human immunodeficiency virus type 1 group M subtype B (isolate …; TR-FRET GST-Vif / biotin-A3G peptide binding; higher % means a stronger effect; test concentration not given here; strong numbers were not always called active; actives 0.57% (n = 260,000);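 active = above the screen mean plus three standard deviations and confirmed in dose response; inconclusive = results disagree or hit not tested in dose response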;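 also: Vif residues 1-94 fused to GST binding biotinylated APOBEC3G peptide 110-148; 0% = full assay without inhibitor and 100% = GST in place of GST-Vif; retest series ran down from 100 µM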
The depositor's hits bear a star; i = inactive; ? = inconclusive; / = not tested or not shown; & = joins results of further samples.

Letters – A = UCH37 DUB inh; B = Ecoli growth; C = RanGTP-Imp inh; D = AF4-AF9 inh; E = HNF4A DNA FP; F = FGF22 binding; G = Vif A3G
COc1ccc(NC(=O)CC2SC(=NCC3CCCO3)NC2=O)c([N+](=O)[O-])c1 (stereo unspecified)
  A: -0.1	B: 0.64	C: -1.4	D: -0.2	E: 1.5	F: i	G: 26%
CC1(C)CC(NC(=O)C23CCC(C)(C(=O)C2)C3(C)C)CC(C)(C)N1 (stereo unspecified)
  A: 2.0	B: 0.7	C: 0.0	D: /	E: 0.5	F: /	G: 9%
CCOc1cccc(C(=O)NC(=S)Nc2ccc(N3CCN(CC)CC3)cc2)c1
  A: 5.5	B: 0.64	C: 2.0	D: 10	E: -2.2	F: i	G: -5%
O=C(Nc1cccc(C(=O)O)c1)/C(=C\c1ccccc1)NC(=O)c1cccc2ccccc12
  A: 0.3	B: 0.71	C: 4.6	D: 1.0	E: -1.6	F: i	G: 4%
O=C(Cc1ccccc1[N+](=O)[O-])Nc1ccccc1C(=O)N1CCCC1
  A: -2.3	B: 0.66	C: 3.3	D: -2.4	E: -1.9	F: i	G: /
C/C(=N/NC(=O)c1cnccn1)c1cccs1
  A: /	B: /	C: 1.0	D: /	E: 0.8	F: /	G: -10%
O=C(NC1CC2CCCC(C1)N2Cc1ccc(F)cc1)c1ccc(F)cc1 (stereo unspecified)
  A: 0.1	B: 0.72	C: 4.8	D: -2.1	E: 0.5	F: i	G: 24%
CC(NC(=O)c1ccc(OC2CCN(C(=O)c3cccnc3)CC2)cc1)C1CC1 (stereo unspecified)
  A: 1.9	B: 0.68	C: -2.7	D: -3.4	E: 1.5	F: i	G: 8%
Cc1ccc(CN2C(=O)C[C@@H](NC(=O)OCC3c4ccccc4-c4ccccc43)C/C=C\C2c2ccc(C)cc2)cc1 (stereo partly specified)
  A: 3.3	B: 0.73	C: /	D: 0.1	E: -1.3	F: i	G: 6%
Cc1ccc(CNC(=O)C2CCN(S(=O)(=O)c3c(C)noc3/C=C/c3ccco3)CC2)cc1
  A: 0.5	B: 0.81	C: 0.4	D: -0.1	E: 8.1	F: i	G: 10%
CC(C)(C)NC(=O)c1ccc2c(c1)N(CC(=O)N1CCCC1)C(=O)C(C)(C)O2
  A: 2.6	B: 0.73	C: -1.4	D: 0.6	E: 1.1	F: i	G: /
CC1CCN(CC(=O)Nc2cccc([N+](=O)[O-])c2)CC1
  A: 2.2	B: 0.66	C: 3.1	D: 7.2	E: -0.5	F: i	G: 9%
COCCCN(C(=O)Cc1csc(-c2cccc(Cl)c2)n1)c1c(N)n(Cc2ccccc2)c(=O)[nH]c1=O
  A: 1.6	B: 0.72	C: 4.7	D: ?	E: 1.9	F: i	G: -11%
Cc1cc(C)n(-c2nc3ccccc3c(=O)n2OCC(=O)OCc2ccccc2)n1
  A: 4.2	B: 0.72	C: 0.6	D: /	E: -1.1	F: /	G: 3%
CCOC(=O)/C=C1\SCC(=O)N1CC(=O)Nc1cccc(F)c1
  A: -1.1	B: 0.67	C: 4.8	D: -1.1	E: 6.2	F: i	G: /
O=C(COC(=O)CCc1nc2ccccc2c(=O)[nH]1)Nc1ccccc1Cl
  A: 4.3	B: 0.71	C: 0.9	D: -4.1	E: -0.5	F: i	G: 1%
Cc1c(NC(=O)CCC(=O)N2CCCCC2)c(=O)n(-c2ccccc2)n1C
  A: -0.3	B: 0.78	C: -1.2	D: /	E: -2.3	F: /	G: -4%
Nc1nccc(NCCSCc2ccccc2)n1
  A: 5.2	B: 0.62	C: /	D: 6.0	E: 2.7	F: i	G: -2%
Cn1c2ccccc2c2nnc(SCc3nnc(-c4ccccc4)o3)nc21
  A: 4.1	B: 0.68	C: -0.8	D: /	E: /	F: /	G: 11%
Cc1cc(C)c(C)c(S(=O)(=O)NCC(=O)NCc2ccco2)c1C
  A: 3.2	B: 0.7	C: -0.3	D: /	E: -2.1	F: /	G: 2%
CC(C)(C)c1ccc(S(=O)(=O)N2CCNC(=O)C2)cc1
  A: 0.7	B: 0.68	C: /	D: -1.8	E: 1.0	F: i	G: -11%
Cc1ccc(CC(=O)N2CCN(C(=O)c3ccco3)CC2)cc1
  A: 0.7	B: 0.68	C: 1.2	D: -0.5	E: -2.1	F: i	G: 0%
O=c1[nH]ncc(N2CCCC2)c1Cl
  A: 3.5	B: 0.69	C: -0.6	D: -0.4	E: 1.0	F: i	G: -10%
Cc1[nH]c(=S)c(C#N)c(-c2ccco2)c1C(=O)N(C)C
  A: 6.0	B: 0.67	C: 4.6	D: -2.5	E: 4.8	F: i	G: -2%
CCOc1ccc(CCNC(=O)CCC(=O)c2cccs2)cc1OCC
  A: -0.6	B: 0.68	C: /	D: 1.3	E: 2.5	F: i	G: /

Record cards (already shown). Values in the order: UCH37 DUB inh	Ecoli growth	RanGTP-Imp inh	AF4-AF9 inh	HNF4A DNA FP	FGF22 binding	Vif A3G
Cc1[nH]c(=S)c(C#N)c(-c2ccco2)c1C(=O)N(C)C in the list: 6.0	0.67	4.6	-2.5	4.8	i	-2%
Cc1ccc(CNC(=O)C2CCN(S(=O)(=O)c3c(C)noc3/C=C/c3ccco3)CC2)cc1 in the list: 0.5	0.81	0.4	-0.1	8.1	i	10%

Continuation.
Letters – A = UCH37 DUB inh; B = Ecoli growth; C = RanGTP-Imp inh; D = AF4-AF9 inh; E = HNF4A DNA FP; F = FGF22 binding; G = Vif A3G
CCN(CC)S(=O)(=O)c1cccc(C(=O)Nc2cccnc2)c1
  A: -3.3	B: 0.71	C: -2.5	D: /	E: 2.2	F: /	G: -2%
CN1CCN(C(=S)c2ccc(Cl)cc2)CC1
  A: 4.1	B: 0.71	C: 4.4	D: /	E: 0.9	F: /	G: 10%
Cn1cnnc1SCC(=O)Nc1cccc(C(=O)O)c1
  A: 5.4	B: 0.71	C: 10.0	D: /	E: -2.9	F: /	G: 22%
COc1cccc(NC(=O)CN(C)CC(=O)c2c(N)n(Cc3ccccc3)c(=O)n(C)c2=O)c1
  A: 3.6	B: 0.67	C: /	D: -1.7	E: 0.6	F: i	G: /
COc1ccccc1-c1nnc(SCC(=O)NC2CCCCC2)o1
  A: 1.8	B: 0.68	C: 5.5	D: -2.6	E: -5.8	F: /	G: 4%
CC(=O)Nc1ccc(NC(=O)C(C)Sc2n[nH]c(-c3ccc(C)cc3)n2)cc1 (stereo unspecified)
  A: 0.9	B: 0.69	C: 1.0	D: -32	E: -1.8	F: i	G: -7%
O=C(O)[C@@H]1[C@@H]2C[C@@H]2CN1c1ncccc1[N+](=O)[O-]
  A: 4.5	B: 0.69	C: 2.0	D: -1.6	E: -3.1	F: i	G: -7%
Cn1c(=O)c(=O)n(C)c2cc(N3CCCCC3)c(NS(=O)(=O)c3ccc([N+](=O)[O-])cc3)cc21
  A: 3.5	B: 0.69	C: 3.6	D: -0.4	E: 0.8	F: i	G: 6%
O=C(OCCNC(=O)c1ccc2ccccc2n1)c1cccnc1
  A: 3.0	B: 0.7	C: -5.5	D: /	E: -0.6	F: /	G: 1%
O=C1CC(Sc2ccc(Cl)cc2)C(=O)N1Cc1ccncc1 (stereo unspecified)
  A: 1.5	B: 0.66	C: -0.8	D: /	E: 0.7	F: i	G: -8%
O=C(NCCCn1ccnc1)c1cn(Cc2ccc(F)cc2)nn1
  A: 5.6	B: 0.72	C: -2.6	D: /	E: 1.1	F: /	G: -9%
Cc1ccc2nc(C)c(Cl)c(=O)n2c1
  A: 3.2	B: 0.7	C: 2.4	D: /	E: 5.5	F: /	G: 4%
Cc1sc2ncnc(OCC(=O)N3CCN(C(=O)c4ccco4)CC3)c2c1C
  A: 0.8	B: 0.66	C: -5.9	D: -1.6	E: 1.4	F: i	G: 8%
O=C(O)CCCNc1ccc(S(=O)(=O)Nc2ccccc2C(=O)O)cc1C(=O)O
  A: -23	B: 0.64	C: /	D: -6.5	E: -1.4	F: /	G: 12%
CCOc1ccc(S(=O)(=O)N2CCCC(C(=O)NC3CCCC3)C2)cc1 (stereo unspecified)
  A: 0.6	B: 0.72	C: 2.6	D: -1.0	E: 0.3	F: i	G: -5%
Cc1cc(NC(=O)Nc2ccc(C)c(C)c2)no1
  A: -0.8	B: 0.64	C: 4.8	D: -4.2	E: 4.8	F: i	G: 4%
CS(=O)(=O)c1ccc2nc(NC(=O)c3cccc([N+](=O)[O-])c3)sc2c1
  A: 9.3	B: 0.68	C: -4.1	D: -2.7	E: 0.6	F: i	G: /
NC(=O)NCCC1=CCCCC1
  A: 0.8	B: 0.68	C: 4.2	D: /	E: -0.3	F: /	G: -5%
O=C(NCc1cccc(C(F)(F)F)c1)c1csc([C@@H]2O[C@H](CO)[C@H](O)[C@H](O)[C@H]2O)n1
  A: /	B: /	C: /	D: -5.4	E: -0.2	F: i	G: /
C[C@@H]1CCCCO[C@@H](CN(C)Cc2ccncc2)[C@@H](C)CN([C@H](C)CO)C(=O)c2cc(NC(=O)c3ccccc3)ccc2O1
  A: /	B: /	C: /	D: 0.3&-1.5	E: 2.2	F: i	G: -5%
Nc1nc(SCc2ccc(Cl)cc2Cl)n[nH]1
  A: -0.8	B: 0.68	C: -0.3	D: /	E: -0.5	F: /	G: 1%
COc1ccccc1NC(=O)CCSc1nnc(-c2ccco2)o1
  A: 0.3	B: 0.66	C: 1.5	D: -1.8	E: 1.7	F: i	G: -7%
O=C(CSc1nc2ccc([N+](=O)[O-])cc2[nH]1)c1ccc(Cl)cc1
  A: 4.4	B: 0.7	C: 4.0	D: /	E: -2.7	F: /	G: 30%
CC(=O)Nn1cnc2c(c1=O)C1(CCCCC1)Cc1ccccc1-2
  A: 1.4	B: 0.73	C: 0.2	D: /	E: 1.3	F: /	G: -3%
CCCCCCN1CCN(C2CN(Cc3cn(Cc4cccc(Cl)c4)nn3)S(=O)(=O)C2)CC1 (stereo unspecified)
  A: /	B: /	C: /	D: 1.5	E: 2.7	F: i	G: /
CN(C)/C=C/C(=O)c1nn(-c2ccc(F)cc2)ccc1=O
  A: 7.2	B: 0.64	C: -4.0	D: -0.9	E: 1.4	F: i	G: 0%
CCC(=O)NCc1nc2ccccc2n1Cc1ccccc1F
  A: 1.1	B: 0.68	C: 3.8	D: /	E: -0.7	F: /	G: 1%
COc1cc(/C=N/NC(=O)c2csc3c2CCCC3)ccc1OCCN1CCOCC1
  A: /	B: /	C: -0.3	D: 4.8	E: -0.7	F: i	G: 2%
O=C(NCc1ccco1)C1CCCN(S(=O)(=O)c2cccc3nonc23)C1 (stereo unspecified)
  A: 3.7	B: 0.77	C: 0.3	D: /	E: /	F: /	G: 17%
CCc1ccc(-c2nc(CS(=O)CC(=O)NCCN3CCCCCC3)c(C)o2)cc1 (stereo unspecified)
  A: 2.3	B: 0.64	C: -3.4	D: 20	E: 1.5	F: i	G: -8%
Cc1nnc(C)c2c(C)n(-c3ccccc3N)c(C)c12
  A: -7.4	B: 0.66	C: -0.7	D: 13	E: -26	F: i	G: 25%

5 entries already listed, sorted by the value under RanGTP-Imp inh, ascending.
mol	RanGTP-Imp inh
CS(=O)(=O)c1ccc2nc(NC(=O)c3cccc([N+](=O)[O-])c3)sc2c1	-4.1
CC(C)(C)NC(=O)c1ccc2c(c1)N(CC(=O)N1CCCC1)C(=O)C(C)(C)O2	-1.4
O=C(O)[C@@H]1[C@@H]2C[C@@H]2CN1c1ncccc1[N+](=O)[O-]	2.0
CN1CCN(C(=S)c2ccc(Cl)cc2)CC1	4.4
COc1ccccc1-c1nnc(SCC(=O)NC2CCCCC2)o1	5.5

The list is partial; count on the stated rates, not on these rows.
